HNF4A DNA FP – change in binding of human HNF4 alpha to DNA. P41235. HNF4a-FITC DNA binding, fluorescence polarization, 1 h. activity change, % at 10 µM. 0.3% of 360,000 active; in the data active means activity change above about 30%, passing the limit was not always enough;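 further: controls were the assay level and a saturating level of protein; the project sought stronger binding though the title names inhibitors; some compounds called inactive have numbers as strong as hits; positive values seem to mean higher polarization but the record does not say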
Target sequence (P41235 whole entry, looked up): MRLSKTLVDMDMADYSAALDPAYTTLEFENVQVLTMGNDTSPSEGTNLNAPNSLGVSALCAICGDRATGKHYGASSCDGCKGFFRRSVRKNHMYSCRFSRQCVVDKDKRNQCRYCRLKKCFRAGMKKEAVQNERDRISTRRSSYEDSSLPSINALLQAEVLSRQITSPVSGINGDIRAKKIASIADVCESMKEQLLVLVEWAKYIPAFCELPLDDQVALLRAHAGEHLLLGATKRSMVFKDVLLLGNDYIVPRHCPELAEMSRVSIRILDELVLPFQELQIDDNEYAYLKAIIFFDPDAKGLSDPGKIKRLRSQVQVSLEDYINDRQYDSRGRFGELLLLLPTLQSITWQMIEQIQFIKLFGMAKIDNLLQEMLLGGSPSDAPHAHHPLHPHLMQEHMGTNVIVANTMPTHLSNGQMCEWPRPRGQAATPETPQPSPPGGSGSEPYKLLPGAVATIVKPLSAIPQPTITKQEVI
Vif TR-FRET – inhibitors of Vif binding to APOBEC3G peptide, primary screen, biochemical, TR-FRET, GST-Vif 1-94, biotin-A3G peptide, dose response retest (AID 1117319) | TR-FRET GST-Vif / biotin-A3G peptide binding; higher % means a stronger effect; test concentration not given here; strong numbers were not always called active | inhibition, %, or IC50 in µM where a hit was titrated | 0.57% of 260,000 active;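 active means above the screen mean plus three standard deviations and confirmed in dose response; inconclusive means results disagree or hit not tested in dose response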;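 further: Vif residues 1-94 fused to GST binding biotinylated APOBEC3G peptide 110-148; 0% = full assay without inhibitor and 100% = GST in place of GST-Vif; retest series ran down from 100 µM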
LANA-H2B inh – blocks KSHV LANA binding to histone H2A/H2B | Q9QR71 | cell-free LANA-H2A/H2B peptide, fluorescence polarization | 0.6% of 320,000 active | inhibition, % (no concentration beside the values) | AID 2629; in the data active means inhibition mostly above about 10%, no sharp cut-off; inactive means mostly below about 6.7%;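 further: stock transfer was 7.5 nL into about 10 µL; 0% = median of vehicle wells and 100% = median of positive control wells; one replicate is shown; the record names a cut of 25% in any replicate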
B2AR ag – agonists of human beta-2 adrenergic receptor inducing internalization; P07550; Am2.2-beta2AR cells, FAP receptor internalization, flow cytometry; reference of the scale not given here; response, % (no concentration beside the values); 0.43% of 340,000 active;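 active means response above a set limit, near 3 SD of response in nonfluorescent compounds, cut at about 42% in these data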;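 further: stock transfer was 100 nL into about 11 µL; a reference agonist was the positive control; negative values mostly stem from fluorescent compounds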
Target sequence (P07550 whole entry, looked up): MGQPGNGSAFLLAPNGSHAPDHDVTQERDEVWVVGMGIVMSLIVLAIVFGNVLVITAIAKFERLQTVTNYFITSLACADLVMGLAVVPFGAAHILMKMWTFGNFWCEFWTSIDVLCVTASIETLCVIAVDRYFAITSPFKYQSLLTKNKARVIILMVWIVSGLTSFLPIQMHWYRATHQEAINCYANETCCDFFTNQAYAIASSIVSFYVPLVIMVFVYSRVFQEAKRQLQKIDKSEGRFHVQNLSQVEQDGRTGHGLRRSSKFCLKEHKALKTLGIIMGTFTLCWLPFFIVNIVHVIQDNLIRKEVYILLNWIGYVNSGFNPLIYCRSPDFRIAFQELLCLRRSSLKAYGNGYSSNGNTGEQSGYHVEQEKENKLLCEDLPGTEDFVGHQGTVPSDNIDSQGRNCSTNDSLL
RanGTP-Impb inh – inhibitors of RanGTP-importin-beta interaction, primary screen, biochemical, FRET, CFP-Ran, YFP-importin-beta, homogeneous | inhibition, % (concentration not given with the values) | cell-free CFP-Ran/YFP-importin-beta FRET ratio | 1.1% of 300,000 active;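 active means most replicates above 15%; inconclusive means exactly half above 15%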;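 further: 0% = DMSO wells and 100% = Ran loaded with GDP instead of GTP; wells of about 40 µL received 100 nL stock; the first replicate is given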
ALR H2O2 inh – inhibitors of human sulfhydryl oxidase ALR; P55789; 3.8% of 290,000 active; inhibition, % (test concentration not listed); purified ALR, DTT oxidation, H2O2 HRP-luminol luminescence;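 active means mean and each replicate at 75% or more; inconclusive means only one of the two met; inactive means neither met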;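 further: stock transfer was 7.5 nL into about 7.5 µL; 0% = neutral wells and 100% = wells with inactivated enzyme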
Calb FLC – affects C. albicans growth with fluconazole. C. albicans CaCi-2 (fluconazole-resistant clinical isolate) + fluconazole, Alamar Blue growth, 48 h. growth inhibition, % (concentration not given with the values). 0.57% of 300,000 active;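 active means most replicates above 75%; inconclusive means exactly half above 75%; inactive means most below 75%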;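 further: all wells also contain fluconazole at 8 µg/ml as a sub-toxic cotreatment; 0% = median of DMSO wells and 100% = median of geldanamycin control wells; wells of about 8 µL received 7.5 nL stock; the first replicate is given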
* marks the source's active call; other numbers are inactive results; ? = inconclusive; nt = no result given; & = joins results of further samples.

SMILES	HNF4A DNA FP	Vif TR-FRET	LANA-H2B inh	B2AR ag	RanGTP-Impb inh	ALR H2O2 inh	Calb FLC
CCOc1ccc2[nH]c(=O)c(CN(Cc3cccs3)Cc3nnnn3C(C)(C)CC)cc2c1	0.8	21%&-5%	0.0	-1	-1.0	-7	-2
CCOc1ccc(S(=O)(=O)N2CCN(Cc3ccco3)CC2)cc1	-0.3	nt	4.0	-6	3.2	3	-13
CCOC(=O)C1CCCN(C(=O)c2ccc(S(=O)(=O)Nc3ccccc3OC)cc2)C1 (stereo not given)	-1.8	24%	-0.9	7	nt	-8	nt
Cc1ccnc(NS(=O)(=O)c2ccc(NC(=O)c3oc4ccc(F)cc4c3C)cc2)n1	0.5	7%	-0.6	7	nt	4	-2
CCOC(=O)c1cccc(NC(=O)c2ccc(NC(=O)C3CCCO3)cc2)c1 (stereo not given)	-0.5	nt	1.5	5	-0.9	0	13
O=C(COC(=O)C(c1ccccc1)c1ccccc1)NCc1ccco1	-2.5	-6%	-0.9	15	4.5	2	-3
COc1ccc(NC(=O)c2ccccc2-c2ccccc2)cc1	-1.5	nt	-2.1	-1	?	-4	-12
COc1ccc(-c2cc(OC(=O)c3ccc(F)cc3)c3c(C)oc(C)c3c(=O)c2)cc1	nt	?	2.4	nt	nt	44	nt
COc1ccc(C2c3c(c(C)c(C)oc3=O)Oc3c(C)c(C)oc(=O)c32)cc1	2.4	nt	2.2	1	nt	-1	nt
O=C(c1[nH]nc2c1CCc1ccccc1-2)N1CCN(Cc2ccc3c(c2)OCO3)CC1	0.6	nt	2.0	1	5.9	-13	-36
C=CCn1c(C)cc(C(=O)COC(=O)COc2ccccc2C#N)c1C	3.8	5%	1.6	3	2.9	0	-9
CC(=O)Nc1ccc(CCCCc2ccccc2)cc1	-0.7	-6%	nt	6	nt	nt	nt
O/N=C/c1cc(Br)cc(Br)c1OCc1ccccc1	-2.4	?	3.7	2	1.4	-7	0
CC(c1ccccc1)n1cnc2ccccc21 (stereo not given)	-0.8	?	5.8	-2	-2.7	-11	4
COc1ccc(N2CCN(C(=O)c3ccc4c(c3)CC(c3ccccc3)OC4=O)CC2)cc1 (stereo not given)	0.1	-2%	nt	-9	nt	nt	nt
COc1cccc(C(=O)Nc2ccc(NC(=O)C3CC3)nc2)c1	1.7	nt	-2.5	3	1.6	5	-11
COc1ccc(N(CC(=O)N2CCC(Cc3ccccc3)CC2)S(C)(=O)=O)cc1	0.2	nt	-9.0	-7	-0.2	-9	-47
CC(C)C(NC=C1C(=O)OC(C)(C)OC1=O)C(=O)O (stereo not given)	0.6	12%	3.5	6	?	-6	33
O=[N+]([O-])c1cc(/C=N\Nc2ccccn2)ccc1Cl	-0.2	nt	4.3	5	-0.2	-4	-12
O=C(Cn1cc(S(=O)(=O)N2CCN(c3ccccc3F)CC2)c2ccccc2c1=O)NCCCN1CCCCCC1	1.4	0%	1.9	1	2.2	5	-30
N#Cc1cc(-c2ccccc2)c[nH]c1=O	2.8	3%	3.3	-3	-2.6	-60	-5
COC(=O)/C(=C\Nc1ccccc1N)c1ncc(C(F)(F)F)cc1Cl	-1.4	14%	1.6	-2	1.0	5	-9
N#C/C(=C/c1ccc(O)c([N+](=O)[O-])c1)C(=O)Nc1ccccc1	-0.6	12%	-7.6	5	-1.6	1	47
CN(C)CCCN(C(=O)c1cc2ccccc2oc1=O)c1nc2ccc(F)cc2s1	-0.1	2%	nt	4	-2.6	nt	-2
O=C(CCc1ccccc1)Nc1ccc2c(c1)OCO2	0.5	2%	-0.2	8	0.7	-27	-3

Fetched one by one from the list above (2):
SMILES	HNF4A DNA FP	Vif TR-FRET	LANA-H2B inh	B2AR ag	RanGTP-Impb inh	ALR H2O2 inh	Calb FLC
CCOc1ccc(S(=O)(=O)N2CCN(Cc3ccco3)CC2)cc1	-0.3	nt	4.0	-6	3.2	3	-13
O=C(COC(=O)C(c1ccccc1)c1ccccc1)NCc1ccco1	-2.5	-6%	-0.9	15	4.5	2	-3

Next results follow.
SMILES	HNF4A DNA FP	Vif TR-FRET	LANA-H2B inh	B2AR ag	RanGTP-Impb inh	ALR H2O2 inh	Calb FLC
CSC1=NSC2=NC(=O)/C(=C\c3cccs3)C(=N)N12	-1.8	25%	-156	-4	-1.9	0	15
CCc1noc(C)c1C(=O)N1CCCC(CCC(=O)NCc2cccc(OC)c2)C1 (stereo not given)	-2.1	7%	3.2	-4	1.8	-6	0
CN(C(=S)NC(=O)C12CC3CC(CC(C3)C1)C2)c1ccc(O)cc1	-3.7	nt	0.6	16	nt	nt	nt
NC(=O)c1nsc(C(=O)N(c2cccc(F)c2)C(C(=O)NC2CCCC2)c2ccc(O)cc2)c1N (stereo not given)	-3.0	nt	4.4	-3	-0.4	50	2
CN1C(C(=O)c2ccccc2)=C(N)c2ccccc2S1(=O)=O	-0.2	26%	0.8	1	-1.8	nt	-16
O=C(N/N=C/c1ccc(Br)s1)c1ccc([N+](=O)[O-])cc1	2.7	0%	-1.5	-1	-1.2	1	3
COc1ccc(C2=Nn3c(nnc3-c3ccncc3)SC2)cc1	1.0	0%	2.2	-7	1.4	-1	-13
CCN1C(=O)C(CC(=O)Nc2cc(C)ccc2C)SC1=Nc1ccc(S(N)(=O)=O)cc1 (stereo not given)	2.0	1%	-5.5	-2	-1.5	0	-15
CN1CCN(C(=O)CCCOc2ccc(Cl)cc2Cl)CC1	4.6	3%	1.5	-7	?	-3	1
OC(c1cccnc1)c1cccs1 (stereo not given)	1.3	0%	-0.3	-7	2.5	-3	-4
CCc1noc(C)c1C(=O)N1CCN(S(=O)(=O)c2ccc(C)cc2)CC1	-2.0	5%	-4.1	4	-0.3	3	0
COc1ccc(CC(=O)Nc2c3c(nn2-c2cccc(Cl)c2)CS(=O)C3)cc1 (stereo not given)	0.9	31%	-0.2	3	0.1	-19	-2
CCOC(=O)COn1c(=O)c(-c2cccs2)[n+]([O-])c2ccccc21	11	-6%	-3.1	11	2.5	73	-6
O=S1(=O)C=C(Sc2nc3ccccc3s2)c2ccccc21	nt	0%	3.0	nt	1.2	42	4
CCOC(=O)C(C(=O)OCC)C(C#N)c1ccccc1 (stereo not given)	-0.6	12%	0.2	9	-5.7	-3	-1
CCC(=O)c1ccc(Oc2nc3c(c(=O)n(C)c(=O)n3C)n2CC)cc1	-4.6	nt	-1.3	0	-1.5	nt	-12
CCC(=O)N/N=c1/sc2ccccc2n1C	2.8	-15%	1.0	5	-0.2	-6	-17
CCc1c(C)sc(NC(=O)c2cc(C(C)C)on2)c1C#N	-3.0	-9%	-1.4	-1	1.2	6	57
Cc1ccnc(NS(=O)(=O)c2ccc(NC(=O)CN3C(=O)c4ccccc4S3(=O)=O)cc2)n1	19	4%	0.7	-2	2.1	3	3
CCC(C)c1ccc(NC(=S)N2CCCC2)cc1 (stereo not given)	-2.1	nt	1.7	-3	nt	-15	1
CN(Cc1ccccc1)S(=O)(=O)c1cc2c3c(c1)CCN3C(=O)CC2	0.8	-3%	0.9	0	-3.8	6	4
O=C(CN(Cc1ccc(F)cc1)C(=O)c1ccco1)NCc1ccc(F)cc1	1.4	0%	-1.3	2	0.5	-8	0
NS(=O)(=O)c1ccc(NC(=S)NC(=O)c2cccnc2)cc1	-0.6	5%	0.1	-4	1.0	30	1
CCOc1ncccc1C(=O)Nc1cccc(C(=O)Nc2cccc(S(=O)(=O)CCO)c2)c1	0.5	-2%	-0.3	9	0.4	-4	44
Cc1ccc(CN2CC(C(=O)N(Cc3nnc(-c4ccccc4Cl)o3)C3CC3)CC2=O)cc1 (stereo not given)	-0.3	nt	0.3	2	7.8	1	-9

Further entries follow.
SMILES	HNF4A DNA FP	Vif TR-FRET	LANA-H2B inh	B2AR ag	RanGTP-Impb inh	ALR H2O2 inh	Calb FLC
Cc1cc(C)cc(N(CC(=O)NC2CCCCC2)C(=O)CCCC(=O)Nc2ccccn2)c1	0.7	nt	-1.6	-4	8.6	0	1
Cc1oc(-c2cccs2)nc1CN1CCC(c2ccccc2)CC1	-0.1	-3%	3.3	1	-0.1	-25	-29
c1ccc(CCc2nn3c(Cn4cnc5ccccc54)nnc3s2)cc1	-0.3	0%	11	-6	2.2	-7	16
O=C(O)[C@H]1CCCC[C@H]1C(=O)NCCc1ccccc1	1.6	0%	-3.3	11	0.1	-1	-2
CC/C(C)=N/NS(=O)(=O)c1ccc(C)c([N+](=O)[O-])c1	-2.0	24%	-1.2	2	-0.5	8	3
CC(=O)c1cccc(NC(=O)Nc2cnn(Cc3ccc(F)cc3)c2)c1	nt	14%	nt	nt	?	nt	-8
O=C(CCNC(=O)c1ccccc1Cl)Nc1ccncc1	-1.0	nt	-2.2	3	2.0	-1	3
O=C(CNc1cccc2ccccc12)N/N=C/c1ccccn1	3.3	nt	-4.1	-4	0.1	nt	-1
CN(C)/C=C(\C(=O)c1ccccc1)c1nnnn1-c1ccc(F)cc1	2.1	-5%	-5.9	10	-1.4	-11	2
Cc1ccccc1CC(=O)c1ccc(O)c(C)c1O	1.6	3%	-10	-4	-3.5	14	14
Cc1noc2ncnc(Oc3ccccc3)c12	-0.3	?	4.0	0	-1.8	-9	-31
N#C/C(=C\Nc1ccccc1O)c1nc2ccccc2o1	1.2	11%	0.7	22	?	69	-9
CC(C)C(C(=O)Nc1ccc2c(c1)OCCOCCOCCOCCO2)N1C(=O)c2ccccc2C1=O (stereo not given)	-0.2	3%	-1.2	16	0.3	72	3
CSc1nccc(-c2sc(SC)c(C#N)c2-c2ccccc2)n1	-3.2	nt	3.0	7	1.3	-6	4

Compounds above with an aryl methoxy group (10):
SMILES	HNF4A DNA FP	Vif TR-FRET	LANA-H2B inh	B2AR ag	RanGTP-Impb inh	ALR H2O2 inh	Calb FLC
CCOC(=O)C1CCCN(C(=O)c2ccc(S(=O)(=O)Nc3ccccc3OC)cc2)C1 (stereo not given)	-1.8	24%	-0.9	7	nt	-8	nt
COc1ccc(NC(=O)c2ccccc2-c2ccccc2)cc1	-1.5	nt	-2.1	-1	?	-4	-12
COc1ccc(-c2cc(OC(=O)c3ccc(F)cc3)c3c(C)oc(C)c3c(=O)c2)cc1	nt	?	2.4	nt	nt	44	nt
COc1ccc(C2c3c(c(C)c(C)oc3=O)Oc3c(C)c(C)oc(=O)c32)cc1	2.4	nt	2.2	1	nt	-1	nt
COc1ccc(N2CCN(C(=O)c3ccc4c(c3)CC(c3ccccc3)OC4=O)CC2)cc1 (stereo not given)	0.1	-2%	nt	-9	nt	nt	nt
COc1cccc(C(=O)Nc2ccc(NC(=O)C3CC3)nc2)c1	1.7	nt	-2.5	3	1.6	5	-11
COc1ccc(N(CC(=O)N2CCC(Cc3ccccc3)CC2)S(C)(=O)=O)cc1	0.2	nt	-9.0	-7	-0.2	-9	-47
CCc1noc(C)c1C(=O)N1CCCC(CCC(=O)NCc2cccc(OC)c2)C1 (stereo not given)	-2.1	7%	3.2	-4	1.8	-6	0
COc1ccc(C2=Nn3c(nnc3-c3ccncc3)SC2)cc1	1.0	0%	2.2	-7	1.4	-1	-13
COc1ccc(CC(=O)Nc2c3c(nn2-c2cccc(Cl)c2)CS(=O)C3)cc1 (stereo not given)	0.9	31%	-0.2	3	0.1	-19	-2

From PubChem
